# PrP UTR inh: inhibition of PrP 5' UTR reporter expression. cell-based PrP 5' UTR mRNA reporter, plate reader. inhibition, % (concentration not given with the values). 340,000 compounds, 0.35% hits;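 active means every replicate at 50% or more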;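 further: 0 = median of the neutral control wells; tested in H4 reporter cells; numbers are from one replicate; inactives centre near -14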
# Sa ugtP lethal: kills S. aureus RN4220 lacking UgtP. AID 1259309. growth inhibition, % (no concentration beside the values). 330,000 compounds, 0.54% hits. S. aureus RN4220 ugtP deletion, OD600 growth, 16 h; some inactives read as strong as hits;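 active means z-score under -3 and OD600 up to 0.15 on both plates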;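 further: plate controls were untreated wells for no effect and antibiotic for full effect; wells of about 80 µL received 100 nL stock; the first replicate is given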
# Mtb hypoxia rep: inhibitors of hypoxia-regulated fluorescent reporter in Mycobacterium tuberculosis; M. tuberculosis hypoxia-regulated fluorescent reporter, fluorescence; fluorescence inhibition, % (concentration not given with the values); 300,000 compounds, 0.1% hits;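 active means 35 to 45% if threefold the growth effect, above 45% if 1.5-fold the growth effect; inactive means the rest, general growth blockers included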;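 further: wells of about 50 µL received 100 nL stock; 0% = vehicle wells and 100% = reference inhibitor wells; whole bacteria with a GFP reporter of the hypoxia response; strong numbers were not always called active; many hits fall short of the cut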
# RN4220 kill: S. aureus RN4220 growth inhibition | 330,000 compounds, 0.33% hits | inhibition, % (test concentration not listed) | OD600, 16 h;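 active means z-score of -3 or lower and OD600 up to 0.18 on both plates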;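 further: plate controls were untreated cells for no effect and reference antibiotic for full effect; stock transfer was 100 nL into about 80 µL; one replicate is shown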
# BJeLR lethal: BJeLR cell viability loss. BJeLR (HRASV12) viability, CellTiter-Glo ATP luminescence, 48 h; reference of the scale not given here. 300,000 compounds, 0.17% hits. AID 1554. inhibition, % (test concentration not listed);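 active means replicate mean above 50%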;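 further: 50 nL library stock added to about 25 µL; numbers are from one replicate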
# Bead autofluor: counter-screen for toxin protease inhibitors: compound fluorescence. 360,000 compounds, 3.1% hits. AID 624483. compound autofluorescence counterscreen, microsphere flow cytometry; stronger effect = higher value. fluorescence intensity (concentration not given with the values);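 active means at least 3 SD above the mean of all compounds, about 16000 in these data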;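 further: 100 nL of 1 mM stock went into each well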
# Mtb hypoxia rep growth: second read-out of Mtb hypoxia rep, no call of its own (marks repeat the call); growth inhibition, %; measured here: M. tuberculosis growth (absorbance);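 0% = vehicle and 100% = reference antibiotic; read after six days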
# * = called active by the depositor; / = no result given.
1: CC1CCCN(C(=O)C2CCN(S(=O)(=O)c3ccc4c(c3)CC(C)N4C(=O)C3CC3)CC2)C1 (stereo not given)
2: O=C(Cn1cncn1)NN=Cc1ccc(Cl)cc1
3: Cc1ccccc1C(=O)N1N=C(c2cccc(NS(C)(=O)=O)c2)CC1c1cccs1 (stereo not given)
4: O=C(c1cccs1)N1CCCC(c2nc3c(nnn3Cc3ccccc3Cl)c(=O)[nH]2)C1 (stereo not given)
5: Cc1ccc(C(=O)c2c(NC(=O)c3cccnc3)sc3c2CCCC3)cc1
6: C/C=C1\C(OC2OC(CO)C(O)C(O)C2O)OC=C(C(=O)OC)C1CC(=O)OCC1C(C)C(OC(=O)CC2C(C(=O)OC)=COC(OC3OC(CO)C(O)C(O)C3O)/C2=C\C)CC1C(CO)CO (stereo not given)
7: Cc1cccc(-n2ncc3c(NCc4ccccn4)ncnc32)c1
8: Cc1ccc2nc(C)/c(=N\O)c(C)nc2c1

compound no.	1	2	3	4	5	6	7	8
PrP UTR inh	-4	/	-12	-20	-52	-15	-45	-24
Sa ugtP lethal	3	10	-6	10	-16	-1	-1	/
Mtb hypoxia rep	0	-1	-16	-1	9	/	/	/
Mtb hypoxia rep growth	6	4	-2	-11	17	/	/	/
RN4220 kill	1.4	6.9	4.3	1.3	11	4.1	1.5	/
BJeLR lethal	-8	/	-5	-12	1	4	-2	8
Bead autofluor	5867	/	2666	4509	6144	5148	2777	16928*

9: CCCn1c(=N)c(C(=O)NCC2CCCO2)cc2c(=O)n3cccc(C)c3nc21 (stereo not given)
10: CCC(CC)C(=O)c1c[nH]c(C(=O)N2CCN(c3ccccc3F)CC2)c1
11: CCOc1cccc2sc(=NC(=O)c3ccc(S(=O)(=O)N4CCOCC4)cc3)n(C)c12
12: O=S(=O)(NCc1cn2ccsc2n1)c1ccc(Oc2ccccc2)cc1
13: CCc1ccc(OCC(=O)NN=Cc2ccc(OS(=O)(=O)c3ccc(C)cc3)c(OC)c2)cc1
14: Cc1nc(CN2CCN(C(=O)c3ccc(Br)cc3)CC2)cs1
15: CN(C)S(=O)(=O)c1ccc(C(=O)OCC(=O)N2CC3(C)CC2CC(C)(C)C3)cc1 (stereo not given)
16: Cc1ccc(S(=O)(=O)NNC2=NCCCCC2)cc1

compound no.	9	10	11	12	13	14	15	16
PrP UTR inh	-11	-22	-14	-1	/	-11	-3	-22
Sa ugtP lethal	7	-5	4	-10	-9	-1	2	10
Mtb hypoxia rep	8	-1	5	2	2	5	21	10
Mtb hypoxia rep growth	7	7	0	4	-5	5	6	6
RN4220 kill	-3.5	-1.1	-0.5	-2.6	2.5	2.5	3.0	7.3
BJeLR lethal	4	-9	-6	8	/	-3	/	4
Bead autofluor	3547	4463	22851*	3335	/	2640	3773	4119

17: COc1ccc(CCN(C)C(=O)COc2cccc(-n3cnnn3)c2)cc1OC
18: Cc1ccccc1NC(=O)NCc1ccc2c(c1)OCO2
19: O=C(COC(=O)/C=C/c1ccc(F)cc1)Nc1ccc(Cl)cn1
20: O=C(NC1CCNCC1)C1CC1
21: OCCSc1nc(-c2cccnc2)nc2ccccc12
22: COC(=O)C1CCC(C)C(c2ccc(C)cc2)N1C(=O)c1ccc(C=NOCC(O)C2OC3OC(C)(C)OC3C2O)cc1 (stereo not given)
23: CCn1cc(C(=O)O)c(=O)c2cc(F)c(N3CCN(C(=S)NC(=O)c4ccccc4)CC3)cc21
24: Cc1ccc2c(c1)-c1c(cnn1CC(=O)O)CO2

compound no.	17	18	19	20	21	22	23	24
PrP UTR inh	-22	-32	-17	-13	-23	/	-13	-15
Sa ugtP lethal	4	13	6	9	4	9	99*	-5
Mtb hypoxia rep	16	6	-12	9	1	-5	12	/
Mtb hypoxia rep growth	9	13	-10	0	8	6	7	/
RN4220 kill	4.9	1.9	9.1	5.4	5.0	6.9	99*	-2.2
BJeLR lethal	/	-5	-11	2	3	/	5	5
Bead autofluor	4107	2498	4185	3185	3748	/	4911	2509

# An excerpt of these results, with bars between the fields.
item | molecule | PrP UTR inh | Sa ugtP lethal | Mtb hypoxia rep | Mtb hypoxia rep growth | RN4220 kill | BJeLR lethal | Bead autofluor
14 | Cc1nc(CN2CCN(C(=O)c3ccc(Br)cc3)CC2)cs1 | -11 | -1 | 5 | 5 | 2.5 | -3 | 2640
15 | CN(C)S(=O)(=O)c1ccc(C(=O)OCC(=O)N2CC3(C)CC2CC(C)(C)C3)cc1 (stereo not given) | -3 | 2 | 21 | 6 | 3.0 | / | 3773
16 | Cc1ccc(S(=O)(=O)NNC2=NCCCCC2)cc1 | -22 | 10 | 10 | 6 | 7.3 | 4 | 4119
17 | COc1ccc(CCN(C)C(=O)COc2cccc(-n3cnnn3)c2)cc1OC | -22 | 4 | 16 | 9 | 4.9 | / | 4107
18 | Cc1ccccc1NC(=O)NCc1ccc2c(c1)OCO2 | -32 | 13 | 6 | 13 | 1.9 | -5 | 2498
19 | O=C(COC(=O)/C=C/c1ccc(F)cc1)Nc1ccc(Cl)cn1 | -17 | 6 | -12 | -10 | 9.1 | -11 | 4185
20 | O=C(NC1CCNCC1)C1CC1 | -13 | 9 | 9 | 0 | 5.4 | 2 | 3185
21 | OCCSc1nc(-c2cccnc2)nc2ccccc12 | -23 | 4 | 1 | 8 | 5.0 | 3 | 3748
22 | COC(=O)C1CCC(C)C(c2ccc(C)cc2)N1C(=O)c1ccc(C=NOCC(O)C2OC3OC(C)(C)OC3C2O)cc1 (stereo not given) | / | 9 | -5 | 6 | 6.9 | / | /
23 | CCn1cc(C(=O)O)c(=O)c2cc(F)c(N3CCN(C(=S)NC(=O)c4ccccc4)CC3)cc21 | -13 | 99* | 12 | 7 | 99* | 5 | 4911
24 | Cc1ccc2c(c1)-c1c(cnn1CC(=O)O)CO2 | -15 | -5 | / | / | -2.2 | 5 | 2509

# (continued)
25: CC(=O)Oc1cccc(-c2nc3ccccc3c(=O)o2)c1
26: CSc1ccc(/C=C(/NC(=O)c2ccccc2)C(=O)N2CCN(C)CC2)cc1
27: C[C@H](NC(=O)C1CC(=O)N(c2ccc3c(c2)OCO3)C1)C(=O)NC1CCCC1 (stereo not given in full)
28: C/[N+]([O-])=C\c1ccc([N+](=O)[O-])o1
29: Cc1c(C(=O)Nc2c(C)n(C)n(-c3ccccc3)c2=O)oc2ccccc12
30: CCc1ccc(NC(=O)c2cccc(C(=O)Nc3ccc(CC)cc3)n2)cc1
31: Cc1ccc2[nH]c3c(c2c1)CCCC3=O
32: CC(C)C[C@@]12C(=O)N(c3cccc(Cl)c3)C(=O)N1[C@H](c1ccc(Br)cc1)[C@@H]1C(=O)N(C(C)(C)C)C(=O)[C@@H]12

compound no.	25	26	27	28	29	30	31	32
PrP UTR inh	-38	-14	-12	-16	-4	-14	-14	-25
Sa ugtP lethal	1	4	3	97*	-4	6	-1	-18
Mtb hypoxia rep	4	3	18	4	4	12	/	5
Mtb hypoxia rep growth	1	7	14	6	7	-11	/	12
RN4220 kill	5.1	8.6	3.1	98*	3.7	9.0	5.0	-15
BJeLR lethal	5	0	9	-5	3	4	-11	/
Bead autofluor	3190	4126	5003	2727	6432	4457	2392	4005

33: COCCNC(=O)CS(=O)Cc1nc(-c2ccc(OC)cc2)oc1C (stereo not given)
34: O=C(COc1ccc(Cl)cc1)NC1CCSC1=O (stereo not given)
35: COc1ccc(NC(=O)CN2CCN(CC#N)CC2)cc1
36: CCc1nnc(NC(=O)c2oc3ccccc3c2COC(C)C)s1
37: Cc1ccc(SCC(=O)Nc2ccc(S(N)(=O)=O)cc2)cc1
38: O=C(Nc1ccccc1Cl)OC1CN2CCC1CC2 (stereo not given)
39: O=C(O)[C@@H](O)c1ccccc1
40: CCCn1nnnc1SCC(=O)NNC(=O)c1ccco1

compound no.	33	34	35	36	37	38	39	40
PrP UTR inh	-20	-3	-38	-17	-24	-14	-22	-12
Sa ugtP lethal	-2	-5	14	7	0	0	/	8
Mtb hypoxia rep	11	4	12	11	-1	3	/	9
Mtb hypoxia rep growth	9	3	0	8	9	13	/	6
RN4220 kill	-7.2	4.4	4.1	1.0	3.0	1.8	/	5.2
BJeLR lethal	-16	1	-5	/	0	-1	1	-6
Bead autofluor	6163	3978	3861	3497	4395	4202	5993	4347

41: CCc1ccc(OC(C)C(=O)Nc2ccc(S(=O)(=O)Nc3nccs3)cc2)cc1 (stereo not given)
42: COCc1ccc(C(=O)N2CCC(CCC(=O)Nc3cccc(C)c3)CC2)s1
43: O=C1CC(C(=O)Nc2ccccc2)N=C(N2CCOCC2)N1 (stereo not given)
44: Cc1cc(C)nc(NC=C2C(=O)OC(C)(C)OC2=O)n1
45: CN1CCN(c2ccccc2NC(=O)c2ccc(-c3ccccc3[N+](=O)[O-])o2)CC1
46: Cc1ccc2c(c1)c1c(n2CC(O)CN2C(=O)CNC2=O)C(=O)CCC1 (stereo not given)
47: CCc1ccc(-n2c(C)cc(C=NNC(=O)OC)c2C)cc1
48: CC(C)C[C@H](N)c1nnc(S(=O)(=O)Cc2ccc(F)cc2)o1

compound no.	41	42	43	44	45	46	47	48
PrP UTR inh	-2	-4	-9	-6	-4	6	/	-12
Sa ugtP lethal	/	13	-3	7	3	-16	-2	/
Mtb hypoxia rep	/	1	1	7	9	-4	-5	/
Mtb hypoxia rep growth	/	5	0	3	12	-3	-14	/
RN4220 kill	/	1.3	-3.0	6.6	-1.8	-3.4	9.4	/
BJeLR lethal	-7	5	-8	9	2	5	/	5
Bead autofluor	5744	5713	9752	4409	4269	5631	/	2860

49: Cc1cc(C)c2nc(NCCCNC(=S)NCCCN(C)C)c(C#N)cc2c1
50: COc1ccc(-c2ccc(C(c3c(C)[nH][nH]c3=O)c3c(C)[nH][nH]c3=O)o2)c([N+](=O)[O-])c1
51: Cc1cc(N2CCN(Cc3ccc4c(c3)OCO4)CC2)n2ncnc2n1
52: COc1cccc(NC(=O)COC(=O)c2ccccc2C(=O)N2CCN(c3ccccc3)CC2)c1
53: CCOCCCNC(=O)c1c[nH]c2cc(C)ccc2c1=O
54: COC(=O)Cn1ncc2c(C)n(Cc3ccccc3)c(C)c2c1=O
55: CCOc1ccc(N(CC(=O)Nc2c(C)n(C)n(-c3ccccc3)c2=O)S(=O)(=O)c2ccc(F)cc2)cc1
56: COc1ccc(CNC(=O)c2ccc(CS(=O)(=O)c3ccccc3C)o2)cc1

compound no.	49	50	51	52	53	54	55	56
PrP UTR inh	-9	-22	-1	-32	-8	-54	-20	-18
Sa ugtP lethal	-10	-2	3	5	0	1	4	11
Mtb hypoxia rep	-1	5	10	-13	6	-8	6	1
Mtb hypoxia rep growth	15	16	6	-2	8	-5	15	-6
RN4220 kill	-8.5	-3.5	4.2	9.3	4.0	5.7	-2.7	5.3
BJeLR lethal	14	/	13	-3	5	11	-4	-8
Bead autofluor	4056	4800	21178*	2965	3176	6319	4237	4356

57: O=C(O)CC1(CC(=O)Nc2ccc3c(c2)C(=O)OC3)CCCCC1
58: CN(CC(=O)NC(=O)NCc1ccccc1)Cc1cccc(Cl)c1Cl
59: Cc1ccccc1NC(=O)COC(=O)c1ccc(S(=O)(=O)N2CCCCCC2)cc1
60: COc1ccc(NC(=O)CSCC(=O)NCCc2ccccn2)cc1
61: NC(=O)c1ccc(NC(=O)c2ccccc2S(=O)(=O)c2ccccc2[N+](=O)[O-])cc1
62: CCc1ccc(NC(=O)c2cc(C(C)C)on2)cc1
63: O=C(NNc1ccccc1)C(=O)NNS(=O)(=O)c1ccc([N+](=O)[O-])cc1
64: O=C(NCc1ccccc1)c1ccc(CN2CCOCC2)cc1
65: CCCN1CCC(=O)NC1=S
66: COC(=O)[C@H](CCSC)NC(=O)NCCc1ccc(F)cc1
67: O=C(COc1ccc(/C=N/NC(=O)C(=O)N2CCCCC2)cc1)Nc1ccccc1Cl

compound no.	57	58	59	60	61	62	63	64	65	66	67
PrP UTR inh	/	5	-13	-40	-21	-41	-40	-25	-2	-1	-17
Sa ugtP lethal	7	4	2	1	/	-11	/	5	0	2	/
Mtb hypoxia rep	2	3	0	-9	/	-9	/	2	3	0	/
Mtb hypoxia rep growth	11	13	1	-1	/	-2	/	3	6	5	/
RN4220 kill	4.6	0.4	3.5	6.2	/	-0.1	/	4.9	1.5	2.0	/
BJeLR lethal	10	15	/	-18	-2	-8	4	4	/	-8	-2
Bead autofluor	6112	9597	5972	4507	2587	10984	1902	2419	3589	23311*	2108

# Source: PubChem (several laboratories)
